# Compound activity (PubChem)
# Measles inh: inhibitors of measles virus growth in cells, primary screen, measles RdRp inhibitor project, cell-based, single point, HTS; z-score (test concentration not listed); 33,000 tested, 0.1% active; infected Vero cells, GFP fluorescence, 64 h; stronger effect = lower value;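 active = z-score under -3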;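 note: score is relative to mean and SD of the compound wells of a plate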
# * = called active by the depositor. This is a subset; count on the stated rates, not on these rows.
Measles inh	structure
-0.06	Cc1ccccc1CN1C(=O)CSc2ccc(C(=O)NCCCN3CCOCC3)cc21
-0.54	O=[N+]([O-])c1ccc(N2CCN(S(=O)(=O)c3ccccc3)CC2)cc1NCc1ccc(Cl)cc1
1.2	COc1ccc(CNCc2ccccc2C(F)(F)F)cc1
-0.52	Cc1ccc(C(=O)Nc2cccc(NC(=O)c3ccc(F)cc3)c2)cc1[N+](=O)[O-]
-0.23	CCCn1c2ccccc2c2nnc(SCC(=O)N3CCCCC3)nc21
-0.95	Cc1ccc(N2C(=O)C(Cl)=C(Nc3ccc(C)c(C)c3)C2=O)c(C)c1
-1.1	Cc1ccc(-c2csc(NC3OC(=O)c4ccccc43)n2)c(C)c1 (configuration not stated)
0.8	COc1ccc(S(=O)(=O)Nc2c(C)n(C)n(-c3ccccc3)c2=O)cc1[N+](=O)[O-]
-0.17	O=C(Cn1c(=O)n(CCc2ccccc2)c(=O)c2ccccc21)Nc1ccc(Br)cc1
1.9	COc1ccc(C2CC(=O)C3=C(C2)Nc2ccccc2NC3c2ccc(C)s2)cc1 (configuration not stated)
-0.27	Cc1nc2cc(N=Cc3cc([N+](=O)[O-])ccc3O)ccc2n1Cc1ccccc1
-0.03	O=C(O)c1cc2ccccc2n1-c1ccccc1
1.3	O=[N+]([O-])c1ccc(NC2OCC(O)C(O)C2O)cc1 (configuration not stated)
0.95	CCc1ccc(NC(=O)CSc2cc(=O)n(C)c3cc(Cl)ccc23)cc1
-1.4	C=C(C)CN1CCN(c2ccc(N3C(=O)C4CCC(C)CC4C3=O)cc2[N+](=O)[O-])CC1 (configuration not stated)
0.12	Cc1[nH]c2ccccc2c1C(Nc1cccc(F)c1)c1ccccn1 (configuration not stated)
-0.3	CCOc1ccc(-c2cn(-c3cc(C)cc(C)c3)c(=O)[nH]2)cc1Cl
2.5	CCOc1ccc(-c2csc(Nc3ccccc3)n2)cc1
-0.44	COCCN1C(=O)c2ccccc2C(C(=O)Nc2cccc(SC)c2)C1c1cn(C)c2ccccc12 (configuration not stated)
0.83	Cc1cccc(N2CCN(C(=O)c3cnn4c(C(F)(F)F)cc(-c5cccs5)nc34)CC2C)c1 (configuration not stated)
1.2	CCCOC(=O)c1ccc(NC(=O)c2ccc(OC)cc2)cc1
1.5	Cc1ccc2c(N)c(C(=O)O)sc2n1
-0.41	CC(=O)N1c2c(cc(Br)cc2S(=O)(=O)N2CCN(c3ccc(C)cc3)C(C)C2)CC1C (configuration not stated)
8.5	O=C(O)c1cccc(Nc2cc(N3CCCCC3)c3noc4c3c2C(=O)c2ccccc2-4)c1
-0.1	C=C1c2ccccc2NC(=O)N1c1cccc(Cl)c1
0.14	COc1ccc(N2C(=O)C3ON(C4SC(=S)N(C)C4(C)C)C(c4ccc([N+](=O)[O-])cc4)C3C2=O)cc1 (configuration not stated)
0.35	CCOC(=O)C(NC(=O)c1cccc(F)c1)(Nc1sc2c(c1C(N)=O)CCCC2)C(F)(F)F (configuration not stated)
1.3	COc1cc(C2C(C(=O)N3CCOCC3)=C(C)NC3=C2C(=O)CC(C)(C)C3)cc(Br)c1OC (configuration not stated)
0.14	COc1ccc(C(=O)N2CCN(S(=O)(=O)c3ccc(NC(C)=O)cc3)CC2)cc1OC
0.78	O=c1[nH]c2ccc(S(=O)(=O)N3CCN(c4ccc(F)cc4)CC3)cc2[nH]c1=O
0.01	COC(=O)c1c(C)oc2ccc(NS(=O)(=O)c3cccc([N+](=O)[O-])c3)cc12
-0.36	COc1ccc(C(=O)Oc2c(Sc3ccccc3)c(C)nn2C(C)(C)C)cc1
-1.8	CCCCSc1nc2c([nH]c3ccccc32)c(=O)n1-c1ccc(F)cc1
1.7	Cc1ccc2c(c1)C(=O)N(CC(=O)O)C2=O
0.56	Cc1nnc2n1N=C(c1ccc(Cl)cc1)CS2
1.1	CN(c1ccc(Br)cc1)S(=O)(=O)c1cnc[nH]1
-0.2	CCOC(=O)c1c(NC(=O)c2cccc(Cl)c2)sc(C(=O)Nc2ccccc2C(F)(F)F)c1C
-0.33	Cc1cccc(C)c1NC(=O)Cn1cc(C(=O)C(F)(F)F)c2ccccc21
-0.01	CC(C)Sc1nc(N2CCCCC2)c2c(c1C#N)CCCC2
-0.58	O=C(CCCn1c(=S)[nH]c2ccc(Br)cc2c1=O)NCCc1ccccc1
0.14	Cc1ccc(N2C(=O)CSC2c2ccc([N+](=O)[O-])cc2)c(Br)c1 (configuration not stated)
0.21	O=C(O)c1cccc(N2C(=O)c3ccc(C(=O)O)cc3C2=O)c1
-1.2	COc1ccc2cc(C(N)=O)c(=Nc3cccc(C(F)(F)F)c3)oc2c1
0.17	CC(C)NC(=O)c1cc(-c2ccc(F)cc2)on1
0.12	Cc1nc2ccc(Cc3ccc4nc(C)n(-c5ccc(O)cc5)c(=O)c4c3)cc2c(=O)n1-c1ccc(O)cc1
0.46	O=C(Cn1c(=O)oc2cc(Cl)ccc21)Nc1nccs1
-0.11	C=CCOc1ccc(C2N3CC4(CC)CN2CC(CC)(C3)C4=O)cc1 (configuration not stated)
-0.19	O=[N+]([O-])c1cccc(C=Nc2ccc3oc(-c4cccc5ccccc45)nc3c2)c1
-0.44	CCOC(=O)C1=C(C)NC2=C(C(=O)C(C(=O)OCC)C(c3ccccc3OC)C2)C1c1sccc1C (configuration not stated)
-0.22	Cc1ccc(C2CC(=O)C3=C(C2)Nc2ccccc2NC3c2cccnc2)cc1 (configuration not stated)
0.39	CSc1nnc2c(n1)OC(C1CC=C(C)CC1)Nc1ccccc1-2 (configuration not stated)
0.15	O=[N+]([O-])c1ccc(N2CCOCC2)cc1SCCO
-0.18	Clc1ccccc1C1C=C(c2ccc(I)cc2)Nc2ncnn21 (configuration not stated)
-0.7	Cc1ccc(NC(=O)CSc2ncnc3c2sc2ccccc23)cc1Cl
0.45	COc1ccc(N2CCN(CCCNC(=O)c3ccc(N4CCCC4=O)cc3)CC2)cc1
-0.62	COc1ccc(S(=O)(=O)CCC(=O)N2CC=C(c3ccccc3)CC2)cc1
0.41	O=C(Nc1ccc2oc(-c3ccccc3F)nc2c1)c1cccc2c(Br)cccc12
-1.1	Cn1cc(CC(=O)NCC2COc3ccccc3O2)c2ccccc21 (configuration not stated)
1.2	Cc1ccnc(NC(=O)c2ccccc2[N+](=O)[O-])c1
0.12	O=[N+]([O-])c1cccc(-c2noc(CCc3ccccc3)n2)c1

# New compounds follow.
Measles inh	structure
-0.46	Cc1cc(C)c(C#N)c(Nc2ccccc2)n1
0.66	COc1ccc(Cl)cc1Nc1ncnc2sc(C)c(S(=O)(=O)N3CCC(C)CC3)c12
-0.48	COc1ccc(-n2c(SCC(=O)Nc3ccc(C)cc3)nc3[nH]ncc3c2=O)cc1
-0.23	Cc1ccc(C2=NN(C(=O)c3ccccc3)C(c3cccc([N+](=O)[O-])c3)C2)cc1 (configuration not stated)
1.8	O=C1c2ccccc2C(=O)c2c(NC(=O)c3cc4ccccc4oc3=O)cccc21
-0.44	CCCOc1ccc(C2NC(=O)NC(C)=C2C(=O)OC2CCCC2)cc1OC (configuration not stated)
1.2	COc1cc(C2Nc3cc(C)c(C)cc3NC3=C2C(=O)CC(C)(C)C3)cc([N+](=O)[O-])c1O (configuration not stated)
1.6	CCC(=O)N1CCc2cc(S(=O)(=O)N(CC)c3ccccc3)ccc21
-0.49	O=C1CCCC2=C1C(c1ccc(F)cc1)c1c(nc(SCc3ccccc3F)[nH]c1=O)N2 (configuration not stated)
0.09	CCOC(=O)c1sc2nc3c(c(-c4cccs4)c2c1N)CCCCC3
-0.58	C=CCN1C(=O)CSc2ccc(C(=O)N3CCN(c4ccccn4)CC3)cc21
0.23	Clc1ncnc2scc(C3COc4ccccc4O3)c12 (configuration not stated)
1.8	O=C(CN(c1cc(C(F)(F)F)ccc1Cl)S(=O)(=O)c1ccccc1)Nc1ccc(S(=O)(=O)N2CCOCC2)cc1
-0.11	CCOC(=O)c1cnc2ccc(OCC)cc2c1Nc1ccc(I)cc1
-0.64	Cc1cccc(N2CCN(C(=O)Cc3ccc(-n4c(=O)[nH]c5ccsc5c4=O)cc3)CC2C)c1 (configuration not stated)
0.94	O=C(CCCCCn1c(=S)[nH]c2ccc(Br)cc2c1=O)NC1CCCCCC1
-1.4	Cn1c(=O)c2c(ncn2Cc2ccccc2F)n(C)c1=O
-0.38	CC(C)(C)C1CCc2c(sc(NC(=O)c3cc4n(n3)C(C(F)(F)F)CC(c3cccs3)N4)c2C#N)C1 (configuration not stated)
-0.51	COC(=O)c1ccccc1Oc1c(F)c(F)nc(NCCO)c1F
1.7	CCC1CCCCN1C(=O)Cn1c(=O)n(-c2cccc(OC)c2)c(=O)c2sccc21 (configuration not stated)

# Laid out differently: results already given
smiles: COC(=O)c1ccccc1Oc1c(F)c(F)nc(NCCO)c1F
- Measles inh: -0.51

smiles: C=CCN1C(=O)CSc2ccc(C(=O)N3CCN(c4ccccn4)CC3)cc21
- Measles inh: -0.58

# The results go on.
Measles inh	structure
0.79	CCOC(=O)C1=C(N)OC2=C(C(=O)CCC2)C1c1ccc(CC)s1 (configuration not stated)
0.67	Cc1c(C(=O)NCCCN2CCOCC2)sc2ncn(Cc3ccccc3Cl)c(=O)c12
-0.25	Cn1c(=O)c2c3c(sc2n2c(SCC(N)=O)nnc12)CCCC3
-0.39	O=C1C(Cl)=C(N2CCCCCC2)C(=O)N1C1CCCCC1
-0.15	O=C(Nc1nc(-c2ccc(F)cc2)cs1)c1ccc(Cl)c([N+](=O)[O-])c1
-0.11	O=C(Nc1ccc(Oc2ccccc2)cc1)c1cccs1
-0.82	CCOc1cc2[nH]c(=O)n(Cc3ccc(OC)cc3)c(=O)c2cc1OCC
-0.45	Cc1ccc(C2C3=C(CC(C)(C)CC3=O)NC3=C2C(=O)CC(C)(C)C3)o1
-0.34	CCCOc1cccc(C(=O)Nc2ccc(-c3nc4cc(Cl)ccc4o3)cc2)c1
0.56	CCc1ccc(OCc2nc(-c3cccnc3)no2)cc1
2.3	COc1ccc(Cl)cc1NS(=O)(=O)c1cccnc1
0.62	CC1=C(C(=O)Nc2ccc(Cl)cc2)C(c2cccs2)n2nc(SCc3cccc(C)c3)nc2N1 (configuration not stated)
-0.31	CCOC(=O)c1[nH]c2ccccc2c1NC(=O)c1ccccc1[N+](=O)[O-]
0.26	O=C(NCC1COc2ccccc2O1)c1ccco1 (configuration not stated)
-0.39	COc1ccc(C2CC(c3cccc(Br)c3)Nc3nnnn32)c(OC)c1 (configuration not stated)
-0.67	COc1ccc(-c2nc(-c3cccnc3)no2)cc1OC
-0.17	CCOc1cc2c(cc1OCC)C1C(C(=O)Nc3cccc(Cl)c3)c3ccccc3C(=O)N1CC2 (configuration not stated)
1	CCCOC(=O)C1=C(C)NC2=C(C(=O)CCC2)C1c1cccc2ccccc12 (configuration not stated)
-0.15	CCOc1ccc(N=c2oc3c(C)ncc(CO)c3cc2C(N)=O)cc1
0.14	COc1ccc(Cn2c(=S)[nH]c3cc(C(=O)NCc4ccccc4Cl)ccc3c2=O)cc1
-0.35	O=C1CSC(c2ccccc2)N1c1ccc(O)cc1 (configuration not stated)
-0.14	OC(Cn1ccnc1)c1ccccc1 (configuration not stated)
0.13	COc1ccc(N2C(=O)CC(NCCc3c[nH]c4ccccc34)C2=O)cc1 (configuration not stated)
-0.06	Cc1ccc(-c2[nH]c3ccccc3c2SCCNC(=O)c2cccs2)cc1
-1.3	CC(C)c1cc(NS(=O)(=O)c2ccccc2)cc(S(=O)(=O)c2ccc(Cl)cc2)c1O
-1.9	C#CCOc1ccc(Cl)cc1C1C2=C(CCCC2=O)NC2=C1C(=O)CCC2
-0.78	COc1ccc2oc(=Nc3ccc(C(=O)c4ccccc4)cc3)c(C(N)=O)cc2c1
0.92	CC1CCN(CCCNC(=O)c2ccc3nc4ccccc4c(=O)n3c2)CC1
1.3	C=CCSc1nc(C)c2cc(C)ccc2n1
-0.44	c1ccc(CCNc2c3c(nc4ccccc24)CCC3)cc1
-1.4	O=C(CSc1nnc2ccc3ccccc3n12)NCc1ccco1
-0.17	O=[N+]([O-])c1cc(S(=O)(=O)Nc2ccc3oc4c(c3c2)CCCC4)ccc1Cl
0.89	O=C(O)CSC1=NC(=O)CC(=O)N1
-0.17	CCOC(=O)CSc1nc(NCc2ccco2)c2ccccc2n1
-0.27	Cc1ccc(C2C3=C(CC(C)(C)CC3=O)Nc3[nH]c(=S)[nH]c(=O)c32)cc1 (configuration not stated)
-0.69	CCOc1ccc2nc(NC(=O)CN(C)S(=O)(=O)c3ccc(Br)s3)sc2c1
1	C#CCOc1ccc2c(c1)c(C(C)=O)c(C)n2-c1ccc(OCC)cc1
-0.5	O=C1CN(C(=O)CCC2CCCC2)C(c2ccccc2)c2cc(Br)ccc2N1 (configuration not stated)
-1.5	C=CCc1c(C)nc(SC)nc1Nc1ccc(C(=O)OCC)cc1

# In the list so far, 16 contain an NH in an aromatic ring:
Measles inh	structure
0.12	Cc1[nH]c2ccccc2c1C(Nc1cccc(F)c1)c1ccccn1 (configuration not stated)
-0.3	CCOc1ccc(-c2cn(-c3cc(C)cc(C)c3)c(=O)[nH]2)cc1Cl
0.78	O=c1[nH]c2ccc(S(=O)(=O)N3CCN(c4ccc(F)cc4)CC3)cc2[nH]c1=O
-1.8	CCCCSc1nc2c([nH]c3ccccc32)c(=O)n1-c1ccc(F)cc1
1.1	CN(c1ccc(Br)cc1)S(=O)(=O)c1cnc[nH]1
-0.58	O=C(CCCn1c(=S)[nH]c2ccc(Br)cc2c1=O)NCCc1ccccc1
-0.48	COc1ccc(-n2c(SCC(=O)Nc3ccc(C)cc3)nc3[nH]ncc3c2=O)cc1
-0.49	O=C1CCCC2=C1C(c1ccc(F)cc1)c1c(nc(SCc3ccccc3F)[nH]c1=O)N2 (configuration not stated)
-0.64	Cc1cccc(N2CCN(C(=O)Cc3ccc(-n4c(=O)[nH]c5ccsc5c4=O)cc3)CC2C)c1 (configuration not stated)
0.94	O=C(CCCCCn1c(=S)[nH]c2ccc(Br)cc2c1=O)NC1CCCCCC1
-0.82	CCOc1cc2[nH]c(=O)n(Cc3ccc(OC)cc3)c(=O)c2cc1OCC
-0.31	CCOC(=O)c1[nH]c2ccccc2c1NC(=O)c1ccccc1[N+](=O)[O-]
0.14	COc1ccc(Cn2c(=S)[nH]c3cc(C(=O)NCc4ccccc4Cl)ccc3c2=O)cc1
0.13	COc1ccc(N2C(=O)CC(NCCc3c[nH]c4ccccc34)C2=O)cc1 (configuration not stated)
-0.06	Cc1ccc(-c2[nH]c3ccccc3c2SCCNC(=O)c2cccs2)cc1
-0.27	Cc1ccc(C2C3=C(CC(C)(C)CC3=O)Nc3[nH]c(=S)[nH]c(=O)c32)cc1 (configuration not stated)
